Vaccinia mCherry – vaccinia inhibition (mCherry reporter); 0.63% of 310,000 active; Potency, µM (top dose mostly 36.5 µM), for the others: at the top dose activity change, negative = inhibition, hits mostly inhibitors; Vaccinia virus mCherry reporter infection, fluorescence; about a quarter of the inactives have no number; AID 720579; active = well fitted inhibition curve with a large enough effect; inconclusive = small, poorly fitted or top-dose-only effect; inactive = no such curve, though single readings can be large or run the other way; tested in A549 cells; also: nearly all actives have a fitted effect of over 35% in size; inactives centre near -10
VACV Venus inh – vaccinia inhibition (Venus reporter); 0.46% of 330,000 active; Potency, µM (highest dose often 36.5 µM), without a hit: at the top dose activity change, negative = inhibition, hits mostly inhibitors; Vaccinia virus Venus reporter expression, fluorescence; active means well fitted inhibition curve with a large enough effect; inconclusive means small, poorly fitted or top-dose-only effect; inactive means no such curve, though single readings can be large or run the other way; tested in A549 cells; also: nearly all actives have a fitted effect of over 30% in size; inactives centre near -10
Numbers without * were called inactive; i = inactive; ? = inconclusive; / = no result given; & = joins results of further samples; [ ] = dose if it differs, or a comment. % is scaled to controls: 0 for no effect and ±100 for the full control effect; potency is read from the fitted curve at half-maximal effect. This is a random part of the collection. Share with any hit: about 0.82%.

Second line of a record – VACV Venus inh, Vaccinia mCherry
Cc1cccc(OCC(=O)NC(Cc2c[nH]c3ccccc23)C(=O)O)c1C (stereo not given)
    -7%&-12%, -15%
Cc1ccc(C(=O)NN=C2CCCC2)cc1C
    6%, i
Cc1c(C(=O)NC2CCCc3ccccc32)oc2ccc(S(=O)(=O)N3CCCC3)cc12 (stereo not given)
    -9%, i
CCc1ccc(-c2nc(CS(=O)CC(=O)NCCc3ccc(C)cc3)c(C)o2)cc1 (stereo not given)
    3%, -7%
CC(=O)c1ccc(N2CCN(S(=O)(=O)c3c(C)nc4sc(C)cn4c3=O)CC2)cc1
    -14%, -21%
O=C(CSc1nnc(CNc2ccc(F)cc2)o1)N1CCN(C(=O)c2ccco2)CC1
    0%, i
O=C(COCc1cc(-c2cccs2)on1)Nc1cc(C(F)(F)F)ccc1Cl
    -6%, -12%
Cc1cc(C)cc(NC(=O)c2oc3ccc4c(c3c2C)C(=O)CC(C)(C)O4)c1
    -4%, -8%
CCCOc1ccc(C(=O)Nc2ccc(NC(=O)c3ccccc3)c(C)c2)cc1
    ?, ?
COCCn1c(N)c(Sc2ccc([N+](=O)[O-])cc2)c(=O)[nH]c1=O
    0%, -3%
Nc1c(-c2nc(-c3cccs3)no2)nnn1-c1ccc(Cl)cc1
    -15%[7.34 µM], -17%[7.34 µM]
Cc1cccc(C(=O)NNC(=O)C2CCCO2)c1 (stereo not given)
    -5%, -2%
CC(Oc1ccc2c(-c3ccccc3)cc(=O)oc2c1)C(=O)O (stereo not given)
    -11%, i
Cc1ccc(S(=O)(=O)Nc2nc3ccccc3nc2Nc2cccc(S(=O)(=O)N3CCCC3)c2)cc1
    59%[activator], -14%
CCCCOC(=O)c1ccc(NC(=O)c2cc(-c3ccccc3)on2)cc1
    2%, -8%
CN(Cc1c(F)cccc1Cl)C(=O)C1CC(=O)N(CCc2ccccc2)C1 (stereo not given)
    6%, 1%
O=C(COc1ccc(S(=O)(=O)NC2CCCCC2)cc1)NCc1cccnc1
    -9%, -17%
O=C(CC1Nc2ccccc2NC1=O)NCCCN1CCCCCC1 (stereo not given)
    -8%, -6%
CCOC(=O)C1(c2ccccc2)CCN(CCC(=O)Nc2ccc(OC)cc2)CC1
    ?, -9%
COc1ccc(-c2c(C(=O)c3ccccc3)[nH]c(N)c2C(N)=O)cc1OC
    -11%, -10%
Cn1nccc1NC(=O)Nc1cccc(Cl)c1
    -3%, i
COc1ccc(OC)c(/C=N/NC(=O)C(=O)N/N=C/c2cc(OC)ccc2OC)c1
    4%, -14%
COC(=O)N1CCCc2cc(S(=O)(=O)NCc3ccccc3)ccc21
    -6%, -11%
Cc1cccc(C(=O)N[C@H](C(=O)Nc2cc(S(=O)(=O)N3CCCCC3)ccc2C)C(C)C)c1
    -20%, -17%
Cc1cccc2c(C(=O)O)c3c(nc12)CCCCC3
    -1%, -11%
COc1ccc2sc3ccccc3c(=O)c2c1OC
    7%, /
O=C(Nc1ccc(Cc2ccc(NC(=O)Nc3cccnc3)cc2)cc1)Nc1cccnc1
    -23%, -2%
CC(C)CNC(=O)NC(=O)COC(=O)COc1ccc(Cl)cc1Cl
    -3%, -4%
CCCCN(C(=O)CSc1nnc(-c2ccccc2)n1C)c1c(N)n(Cc2ccccc2)c(=O)[nH]c1=O
    -22%, -13%
O=[N+]([O-])c1cccc(CNC2CCCCCC2)c1
    9%, -9%
COc1ccc(OC)c(NC(=O)CCNS(=O)(=O)c2cccs2)c1
    -2%, -19%
CC1S/C(=N/N=C2CCC(C(C)(C)C)CC2)NC1=O (stereo not given)
    -13%, i
CC12CCC3C(CCC4CC(=O)OCC43C)C1CCC2O (stereo not given)
    -13%, -11%
COc1ccc(CNC(=O)c2ccc3c(c2)N(Cc2ccccc2)C(=O)c2ccccc2S3=O)cc1 (stereo not given)
    -10%, -10%
Clc1ccc2c(c1)C1OCCC1C(c1ccco1)N2 (stereo not given)
    -16%, ?
CCN(CC)S(=O)(=O)c1cc(NC(=O)c2ccccc2OCc2c(C)noc2C)ccc1C
    -15%, -2%
Cc1cc(NC(=O)CSc2nnc(-c3ccco3)n2N)no1
    -8%, -13%
CC(C)(CC(=O)O)CC(=O)NNc1ncccc1C#N
    -12%, -5%
CC1=C(C(=O)Nc2ccccc2)C(c2ccco2)C(C#N)=C(SCC(=O)Nc2cccc(C)c2C)N1 (stereo not given)
    -12%, -1%
CCCC[N+]12CCC(CC1)C(=C(c1ccccc1)c1ccccc1)C2
    -10%, -10%
O=C1NC[C@@H](CCCCN2C[C@H](Cc3ccc(O)cc3)N(CCc3ccc(O)cc3)C(=O)C2=O)N(CCc2ccccc2)C1=O
    -7%, -5%
COc1ccc(-n2c(=O)c3c4c(sc3n3c(SC(C)C)nnc23)COC(C(C)C)C4)cc1 (stereo not given)
    -15%, -19%
CCc1nc2ccc(C(=O)NCc3ccccc3C)cc2nc1CC
    -7%, -2%
Cc1nnc(NC(=O)CCCOc2ccccc2)s1
    -11%, /
O=S1(=O)N[C@@H](Cc2ccccc2)COc2cccc(N3CCC[C@H]3CO)c21
    1%, -12%
CCOC(=O)C1(Cc2ccccc2)CCCN(C(=O)COc2ccccc2OC)C1 (stereo not given)
    -8%, -2%
COc1ccc(-n2c(COc3cccc4ccccc34)nnc2SC(C)C(=O)O)cc1 (stereo not given)
    -11%, i
Nc1nc2cc(Cl)ccc2cc1C(=O)NCCCc1ccccc1
    2%, i
COCCNC(=O)CCC1CCN(Cc2cccc(Oc3ccccc3)c2)CC1
    -16%, -1%
CCCCc1cc2c(c(NC(=O)CC)n1)c(=O)oc1ccccc12
    -13%, -24%
Cc1ccc(N2CC(C(=O)Nc3ccc(N(C)C)cc3)CC2=O)cc1Cl (stereo not given)
    9%, 5%
O=C(Nc1ccn(Cc2ccc(Cl)cc2)n1)c1ccccc1
    0%, i
CCCOc1ccc(-c2c(=O)n(OCc3ccc([N+](=O)[O-])cc3)c3ccccc3[n+]2[O-])cc1
    0%, -11%
CC(CN1CCOCC1)OC(=O)c1cccc(Br)c1 (stereo not given)
    -2%, /
O=S(=O)(NCCC1=CCCCC1)c1cccc(Br)c1
    -16%, i
OCC1OC(Oc2c[nH]c3ccccc23)C(O)C(O)C1O (stereo not given)
    -9%, i
Cc1cc(C(=O)CSc2nc3ccccc3[nH]2)c(C)n1CC1CCCO1 (stereo not given)
    -18%, -28%
Cc1ccc(N(C(=O)CNC(=O)c2ccco2)C(C(=O)NC2CCCC2)c2cccnc2)cc1C (stereo not given)
    -13%, i
CC(=O)Nc1cc(-c2cccc(NS(C)(=O)=O)c2)cn2c(-c3cccc(C(C)=O)c3)cnc12
    -10%, -14%
S=P(NCCNP(=S)(N1CC1)N1CC1)(N1CC1)N1CC1
    0%, -23%

Continuation.
Second line of a record – VACV Venus inh, Vaccinia mCherry
CC(/C=C/c1ccco1)=N/NC(=O)CNc1ccccc1C
    -16%, -16%
CCC(C)n1c(=O)c(C(=O)Nc2ccccc2S(N)(=O)=O)c(O)c2ccccc21 (stereo not given)
    ?, 13µM*
CCc1nc2ccccc2n1CC(O)COc1ccc(NC(C)=O)cc1 (stereo not given)
    -13%, -17%
CC(C)(C)OC(=O)N1CCC(C(=O)N[C@@H](Cc2ccccc2)C(=O)O)(c2ccccc2)CC1
    -4%, i
O=C(C/C=N/OCc1ccc(Cl)cc1)c1cnc(-c2ccccc2)s1
    -10%, -14%
COc1cccc(-c2cc(=O)c3cc(NC(=O)c4ccccc4)ccc3[nH]2)c1
    ?, -13%
COc1ccc(C(=O)NNC(=O)CSc2nnnn2C)cc1
    -6%, 9%
O=C(CSC(=S)N1CCCC1)N1CCN(S(=O)(=O)c2cccc(F)c2)CC1
    -18%, -20%
CN(C)S(=O)(=O)N1CCC(c2ccc(F)cc2)C(COc2ccc3c(c2)OCO3)C1 (stereo not given)
    -15%, -5%
Cc1cccc(C)c1NC(=O)CN(C)C(=O)c1ccccc1SCC(=O)N1CCCC1
    -10%, -5%
CCCc1oc2ccc(NS(=O)(=O)c3ccc(OC)cc3)cc2c1C(=O)OCC
    ?, ?
CC(C)(C)c1nnc(NC(=O)c2cccs2)s1
    -12%, 20%
O=C(CCNc1cccc(F)c1)c1cc2ccccc2o1
    -12%, ?
Cc1cccc(CC2CC(=O)N(c3ccccc3)C2=O)c1 (stereo not given)
    -5%, -5%
COC(=O)C1=C(c2ccccc2OCc2ccccc2)C[C@@H]2CC[C@H]1N2C(=O)NCCOc1ccccc1
    ?, -5%
COc1cc(CSc2ncc(CO)n2Cc2ccc(C)cc2)cc(OC)c1
    -3%, -8%
O=Cc1cccn1-c1sc2c(c1C(=O)O)CCCC2
    5%, -16%
CCN(CCCNC(=O)C1CCC(=O)N1Cc1ccccc1Cl)c1cccc(C)c1 (stereo not given)
    -21%, ?
COc1ccc(C(=O)COC(=O)c2ccc3ccccc3n2)cc1
    7%, -2%
Cc1c(Nc2nc3ccccc3nc2NS(=O)(=O)c2cccc(Cl)c2)c(=O)n(-c2ccccc2)n1C
    -6%, -14%
COc1ccc(-c2cccc(-c3cc(=O)oc4cc5c(cc34)OCO5)c2)cc1
    -18%, -29%
O=C1C(=O)N(CCN2CCCCC2)c2ccccc21
    -20%, -26%[1.46 µM]
COC(=O)c1ccc(CSc2nc3c(cnn3-c3ccc(Cl)cc3)c(=O)[nH]2)o1
    -1%, -10%
COc1ccc2sc(N(Cc3cccnc3)C(=O)CCc3ccccc3)nc2c1
    -20%, -24%
O=C(CSc1nccc(=O)[nH]1)NC1CCCCCCC1
    -6%, -8%
COC(=O)NCC(C)OC(=O)Nc1cccc(Cl)c1 (stereo not given)
    -10%, -10%
Cc1ccccc1C(=O)Nc1ccc(N2CCCCCC2)cc1
    -20%, ?
COc1cc2c(cc1OC)C(C)N(S(=O)(=O)c1ccc(C)cc1)CC2 (stereo not given)
    -8%, i
O=C(CN1CCN(c2ccccc2O)CC1)NCCCc1ccccc1
    -4%, -23%
CCc1cccc(NC(=O)C2CCN(S(=O)(=O)c3cccs3)CC2)c1
    -18%, i

Given tab-delimited: entries from further up.
SMILES	VACV Venus inh	Vaccinia mCherry
COc1ccc(C(=O)NNC(=O)CSc2nnnn2C)cc1	-6%	9%
O=C(CSC(=S)N1CCCC1)N1CCN(S(=O)(=O)c2cccc(F)c2)CC1	-18%	-20%

A second format for part of the listing above:
structure: COC(=O)C1=C(c2ccccc2OCc2ccccc2)C[C@@H]2CC[C@H]1N2C(=O)NCCOc1ccccc1
  VACV Venus inh = ?; Vaccinia mCherry = -5%

structure: COc1cc(CSc2ncc(CO)n2Cc2ccc(C)cc2)cc(OC)c1
  VACV Venus inh = -3%; Vaccinia mCherry = -8%

structure: O=Cc1cccn1-c1sc2c(c1C(=O)O)CCCC2
  VACV Venus inh = 5%; Vaccinia mCherry = -16%

structure: CCN(CCCNC(=O)C1CCC(=O)N1Cc1ccccc1Cl)c1cccc(C)c1 (stereo not given)
  VACV Venus inh = -21%; Vaccinia mCherry = ?

For convenience, three of the compounds above:
Second line of a record – VACV Venus inh, Vaccinia mCherry
CC(/C=C/c1ccco1)=N/NC(=O)CNc1ccccc1C
    -16%, -16%
CCC(C)n1c(=O)c(C(=O)Nc2ccccc2S(N)(=O)=O)c(O)c2ccccc21 (stereo not given)
    ?, 13µM*
CCc1nc2ccccc2n1CC(O)COc1ccc(NC(C)=O)cc1 (stereo not given)
    -13%, -17%

(more compounds)
Second line of a record – VACV Venus inh, Vaccinia mCherry
O=C(Nc1ccc2oc(-c3ccncc3)nc2c1)c1ccc(F)cc1
    -7%, -12%
Cc1ccc(C(=O)N2CCN(c3ccc(F)cc3)CC2)cc1NC(=O)c1nsc2ccccc12
    -16%, -19%
O=C(/C=C/c1ccco1)Nc1cccc(C(=O)Nc2ccccc2C(=O)O)c1
    4%[7.34 µM], 31%[activator][7.34 µM]
COc1ccc(S(=O)(=O)N2CCCCCC2)cc1C(=O)N(C)Cc1ccc(OC)c(OC)c1OC
    -2%, -10%
Cn1nnnc1SCC(=O)Nc1ncc(C(F)(F)F)cc1Cl
    5%, -14%
C=CCn1c(=O)c2ccccc2n2c(SC(C)C(N)=O)nnc12 (stereo not given)
    -13%, i
CC1CN(C(=O)c2cc3cc(Cl)cc(Cl)c3oc2=O)CC(C)O1 (stereo not given)
    -10%, -12%
CCCCNC(=S)NC(=O)c1ccccc1Br
    -11%, -17%
O=S1(=O)NCC2(CC2)CN1Cc1ccccc1
    -2%, -6%
N=C1SCC(=O)N1c1ncc(Cc2ccccc2Cl)s1
    -13%, -1%
CC(=O)NC12CC3CC(C1)CC(C(=O)N1CCN(S(=O)(=O)c4ccccc4C#N)CC1)(C3)C2
    -14%, i
CC(NC(=O)CCl)c1ccc(Cl)c(Cl)c1 (stereo not given)
    -19%, ?
O=C(Cc1ccc(Cl)c(Cl)c1)Nc1ccc(S(=O)(=O)Nc2ncccn2)cc1
    0%, -10%
O=C(CSc1nc2ccccc2c(=O)[nH]1)N1CCCCC1
    -3%, -10%
Cc1nc2ccc(S(=O)(=O)NC(C(=O)NCc3ccc(Cl)cc3)C(C)C)cc2s1 (stereo not given)
    -5%, -4%

Screening results as filed in PubChem.
